Cruzain noTriton = blocks cruzain activity in detergent-free assay. P25779. purified cruzain, Z-FR-AMC fluorescence, no detergent. Potency, µM, inactives show max response, negative = inhibition, usual class: inhibitors. 200,000 tested, 2.3% active;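 also: plate controls were enzyme without inhibitor for no effect and buffer without enzyme for full effect; nearly all actives have a fitted effect of over 40% in size; top concentration of the series not given in the record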
Target sequence (P25779 123-467 limits assumed): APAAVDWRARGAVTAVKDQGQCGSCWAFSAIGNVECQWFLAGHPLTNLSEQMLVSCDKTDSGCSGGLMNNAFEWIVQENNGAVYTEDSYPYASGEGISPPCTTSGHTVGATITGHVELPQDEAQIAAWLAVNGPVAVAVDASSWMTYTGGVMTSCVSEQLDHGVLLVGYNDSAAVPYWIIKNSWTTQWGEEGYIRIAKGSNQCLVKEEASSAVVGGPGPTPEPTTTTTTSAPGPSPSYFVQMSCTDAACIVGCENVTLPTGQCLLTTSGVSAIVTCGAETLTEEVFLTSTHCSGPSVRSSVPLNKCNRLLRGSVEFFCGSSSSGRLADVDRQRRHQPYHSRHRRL
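Detergent-free condition (0.00005% Triton X-100) in acetate buffer pH 5.5 with DTT. 1.5 nM enzyme and compound were pre-mixed 15 min, then 2 uM Z-FR-AMC substrate added; reaction progress from fluorescence change between first and third reads (60 s).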
RE007 growth inh = less growth of the S. pombe RE007 Vpr strain. S. pombe RE007 Vpr strain, BacTiter-Glo ATP luminescence, 24 h; control for the full effect not named in the record. Potency, µM (highest dose often 92.2 µM), without a hit: top-dose activity change, negative = less growth. 360,000 tested, 0.21% active. AID 651644; active = well fitted falling curve with a large enough effect; inconclusive = small, poorly fitted or top-dose-only effect; inactive = no such curve, though single readings can be large or run the other way;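 also: % is scaled to controls: 0 for no effect and ±100 for the full control effect; nearly all actives have a fitted effect of over 50% in size; the assay follows cell death caused by Vpr and the record does not say whether a fall means rescue or toxicity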
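Fission yeast RE007 carrying one integrated HIV-1 vpr copy, seeded at OD 0.01 in PMG+AL medium with 23 nL pinned compound. Grown 24 h at 30 degrees; viability read by BacTiter-Glo luminescence after 5 min.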
SARS PLP yeast = SARS-CoV PLP inhibition in yeast; 330,000 tested, 0.19% active; Potency, µM (titrated, usually from 32.9 µM), without a hit: at the highest dose activity, positive = growth rescue; S. cerevisiae expressing SARS-CoV PLpro, growth rescue; control for the full effect not named in the record; active means well fitted rising curve with a large enough effect; inconclusive means small, poorly fitted or top-dose-only effect; inactive means no such curve, though single readings can be large or run the other way; also: 0% is about no effect; nearly all actives have a fitted effect of over 55% in size; growth read by luminescence after 48 h
Lassa entry inh = blocks Lassa virus binding to or entry into cells. Lassa virus pseudotype entry inhibition, cell reporter; control for the full effect not named in the record. Potency, µM (top dose mostly 37.9 µM), inactives show at the highest dose activity change, negative = inhibition, most hits filed as inhibitors. 300,000 tested, 1.2% active. AID 540256; active means well fitted inhibition curve with a large enough effect; inconclusive means small, poorly fitted or top-dose-only effect, or effect the other way; inactive means flat fitted curve, though single readings scatter; tested in HEK293 cells; also: % is scaled to controls: 0 for no effect and ±100 for the full control effect; nearly all actives have a fitted effect of over 50% in size; luciferase read-out
NS1 function inh = influenza NS1 inhibition | Potency, µM (highest dose often 46.1 µM), for the others: at the top dose activity, positive = more growth | AID 2326 | 270,000 tested, 0.4% active | S. cerevisiae slowed by influenza A NS1, growth recovery by OD600; active means well fitted rising curve with a large enough effect; inconclusive means small, poorly fitted or top-dose-only effect; inactive means no such curve, though single readings can be large or run the other way; also: nearly all actives have a fitted effect of over 50% in size
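S. cerevisiae expressing influenza A NS1, grown in glucose, washed, then diluted 1:100 into pH 6.0 -URA galactose medium with 23 nl compound. Growth recovery read as OD600; NS1-free strain serves as control.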
Cruzain Triton = inhibitors of Trypanosoma cruzi cruzain with detergent. P25779. Potency, µM, inactives show max response, negative = inhibition, most hits filed as inhibitors. 200,000 tested, 0.43% active. purified cruzain, Z-FR-AMC fluorescence, 0.01% Triton. AID 1478;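 also: plate controls were neutral wells for no effect and buffer without enzyme for full effect; nearly all actives have a fitted effect of over 40% in size; top concentration of the series not given in the record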
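Sodium acetate buffer (100 mM, pH 5.5) containing 5 mM DTT and 0.01% Triton X-100 hosted 1.5 nM cruzain and test compound for 15 min at room temperature. Cleavage of 2 uM Z-FR-AMC was then tracked by fluorescence.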
StopGo reporter = lowers the luciferase signal of an FMDV 2A StopGo reporter; human cells with a luciferase reporter of 2A StopGo recoding; control for the full effect not named in the record; Potency, µM (highest dose often 57.9 µM), without a hit: at the top dose signal change, negative = less light; AID 1159524; 410,000 tested, 1.2% active; active = well fitted falling curve with a large enough effect; inconclusive = small, poorly fitted or top-dose-only effect; inactive = no such curve, though single readings can be large or run the other way; tested in HEK293T cells; also: % is scaled to controls: 0 for no effect and ±100 for the full control effect; nearly all actives have a fitted effect of over 45% in size; luciferase light after 4 h
MARV entry inh = blocks Marburg virus binding to or entry into cells; 300,000 tested, 1.8% active; Potency, µM (doses to about 37.8 µM), without a hit: top-dose activity change, negative = inhibition, most hits filed as inhibitors; Marburg virus pseudotyped entry inhibition, cell reporter; control for the full effect not named in the record; about a third of the inactives were read at about 46 µM; active = well fitted inhibition curve with a large enough effect; inconclusive = small, poorly fitted or top-dose-only effect, or effect the other way; inactive = flat fitted curve, though single readings scatter; tested in HEK293 cells; about a fifth of its hits are not listed in these tables; also: % is scaled to controls: 0 for no effect and ±100 for the full control effect; luciferase read-out
An asterisk follows results filed as active; ? = inconclusive; . = no result given; & = joins results of further samples; [ ] = remark or other dose. Unless noted, calls follow the shape of the dose curve; as a rule, active = well fitted curve in the direction sought with a large enough effect; inconclusive = small, poorly fitted or top-dose-only effect, or another doubt; inactive = no such curve, though single readings can be large; an effect the other way counts as inactive or inconclusive. Potency is read from the fitted curve at half-maximal effect.

SMILES	Cruzain noTriton	RE007 growth inh	SARS PLP yeast	Lassa entry inh	NS1 function inh	Cruzain Triton	StopGo reporter	MARV entry inh
O=C(Nc1ccc2c(c1)OCCO2)C1CCCN(S(=O)(=O)c2cccs2)C1 (stereo not given)	-13%	8%	1%	0%	-7%	-0.7%	?	-3%[46.1 µM]
COC(=O)c1ccc(/C=N/NS(=O)(=O)c2cc(C)ccc2C)cc1	-8%	-19%	3%	-18%	8%	-4.0%	70%[activator]	-16%
CCOc1nc(OCC)nc(-n2cc(-c3ccccc3)nn2)n1	-5%	22%	-13%	-3%	-8%	2.3%	?	-1%[46.1 µM]
CC(C)[C@H](NC(=O)[C@@H]1Cc2ccccc2CN1C(=O)OC(C)(C)C)C(=O)NCC1CCCO1 (stereo not given in full)	.	-2%	-2%	-8%[46.1 µM]	-12%	.	11%	-12%[46.1 µM]
O=C(CN(c1ccccc1)S(=O)(=O)c1ccccc1[N+](=O)[O-])N1CCCC1	.	0%	0%	1%[46.1 µM]	-4%	.	2%	13%[46.1 µM]
Cc1ccc(N(C)C(=O)C2CCN(S(=O)(=O)c3c(C)noc3/C=C/c3c(C)cc(C)cc3C)CC2)cc1	-2%	.	.	-11%[46.1 µM]	.	-2.8%	-13%	.
Cc1cc(NCCN2CCOCC2)n2nc(C)c(-c3ccc(Cl)cc3)c2n1	2%	12%	-9%	?	-89%	-5.9%	?	?
Cc1ccc(NC(=O)CSc2nnc(CNC(=O)c3cccs3)o2)cc1	.	-5%	3%	8%	.	.	-9%	-2%
CC(NC(=O)C12CC3CC(CC(C3)C1)C2)c1ccc2c(c1)OCCO2 (stereo not given)	2%	-7%	-1%	-3%	-45%	8.6%	-16%	?
O=C(c1cccc(N2C(=O)C3C4C=CC(C4)C3C2=O)c1)N1CCN(c2ccccc2)CC1 (stereo not given)	.	-15%	2%	-31%	.	.	?	-4%[46.1 µM]
CCOC(=O)c1ccccc1NC(=O)CN(c1ccccc1C)S(C)(=O)=O	4%	5%[3.69 µM]	4%	-10%	-1%	-4.8%	-8%	0%
C=CCN1C[C@@H](C)N([C@H](c2ccc(C(=O)N(CC)CC)cc2)c2cccc(OC)c2)C[C@@H]1C	8%	.	.	?	-3%	2.2%	.	16µM*
O=C(CCNS(=O)(=O)c1ccccc1)OCC(=O)c1ccc(Br)cc1	.	6%	4%	19%	.	.	-10%	11%[46.1 µM]
Cc1cc(NC(=O)CSc2nc3c(C)ccc(C)c3cc2C#N)no1	.	-18%	-12%	-12%	-2%	.	2%	3%[46.1 µM]
NC(=O)CC(NC(=O)c1ccc(Br)cc1)c1ccc(NCc2ccc(F)c(F)c2)c([N+](=O)[O-])c1 (stereo not given)	.	9%	-1%	.	-4%	.	-19%	.
O=C(c1ccccc1)N1CCCN(c2nccc(C(F)(F)F)n2)CC1	.	-16%	0%	15%[46.1 µM]	1%	.	-6%	0%[46.1 µM]
CN1CCN(C2=CC(=O)OC23CCCCC3)CC1	0%	0%	-4%	17%	4%	-0.8%	-14%	6%[46.1 µM]
CCOC(=O)C1CCCCN1Cc1cccc(OC)c1OC (stereo not given)	0%	-5%	6%	19%	7%	3.4%	.	-12%
O=C(O)c1ccccc1C(=O)Nc1ccc(Br)c(C(F)(F)F)c1	.	15%	0%	.	1%	.	8%	.
COC(=O)c1ccc(/C=C/c2c(-c3ccsc3)sc3ccccc23)cc1	.	-4%	-4%	.	24%	.	-16%	.
COCCn1c(SCC(=O)Nc2ccc(C(N)=O)cc2)nc2c([nH]c3ccccc32)c1=O	.	5%	-2%	1%[46.1 µM]	1%	.	-10%	3%[46.1 µM]
COc1ccc2cc(C(=O)CS(=O)(=O)c3ccccc3)c(=O)oc2c1	.	-1%	4%	.	-3%	.	80%[activator]	.
O=C(NNS(=O)(=O)c1ccccc1[N+](=O)[O-])c1ccc(O)cc1	7%	12%	-7%	0%	12%	6.7%	23%	5%
CC(/C=N/NC(=O)CNc1n[nH]c(=O)[nH]c1=O)c1ccccc1 (stereo not given)	.	6%	1%	.	1%	.	-3%	.
Cc1ccccc1Nc1nc(N)nc(CN2CCN(C(=O)c3ccccc3)CC2)n1	.	-7%	0%	7%[46.1 µM]	1%	.	5%	-12%[46.1 µM]
Cc1ccc(NC(=O)C2CCCN(C(=O)c3ccc(Cl)cc3)C2)cc1S(=O)(=O)N1CCOCC1 (stereo not given)	.	12%	4%	?	.	.	?	?
COc1ccc(Cl)cc1NC(=O)NNC(=O)c1ccccn1	.	19%	-2%	.	-21%	.	0%	.
CN(CCc1ccccc1)C(=O)CCc1nnc(Cc2ccc3c(c2)OCO3)o1	.	20%	-1%	12%	6%	.	28%	15%
C/C(CC(=O)Nc1cccc(Cl)c1Cl)=N\NC(=O)c1ccccc1N	.	-10%	-1%	0%	1%	.	10%	?
O=C(c1cn(-c2ccccc2)nc1-c1ccc(Cl)s1)N1CCOCC1	?	-7%	-4%	20%	-20%	-9.4%	8%	-5%[46.1 µM]
CCOC(=O)N1CCN(S(=O)(=O)N2CCCC(C(=O)NCCCN3CCCCC3CC)C2)CC1 (stereo not given)	.	12%	-3%	.	-8%	.	-1%	.
Cc1nnc(NC2CCCCC2)[nH]c1=O	9%	22%	6%	-2%	5%	-5.0%	10%	-8%
COc1ccccc1N1CCN(C(=O)CSc2nnc3c4ccccc4nc(Cc4ccccc4)n23)CC1	0%	.	10%	.	4%	-7.5%	.	1%
CC1CCc2c(sc(NC(=O)COc3ccccc3C(C)(C)C)c2C#N)C1 (stereo not given)	-8%	.	.	?	.	-0.9%	-24%	.
CCCCn1c(SCC(=O)N2CCCC2)nnc1-c1ccccc1	4%	-2%	-1%	1%	-2%	2.4%	19%	?
O=C1Cc2cc(S(=O)(=O)Nc3ccccc3Cl)cc3c2N1CCC3	.	-2%	1%	.	19%	.	35%[activator]	.
Cc1cc(C)c(Nc2cc(S(=O)(=O)O)c(N)c3c2C(=O)c2ccccc2C3=O)c(C)c1	?	.	-29%	-23%	-16%	25µM*	8.9µM*	-21%
CCOc1ccccc1C1CC(=O)NC(C)=C1C(=O)OC1CCCCCC1 (stereo not given)	-10%	.	.	-24%[46.1 µM]	.	-15%	?	?
CCCCn1c(N)c(N(CCOC)C(=O)CN2CC=C(c3ccccc3)CC2)c(=O)[nH]c1=O	.	-13%	1%	-28%	.	.	0%	14%[46.1 µM]
Cc1onc(-c2ccccc2)c1-c1n[nH]c(=S)n1-c1ccccc1	.	11%	.	3%	.	.	-22%	0%
Cc1cc(CNC(=O)c2cc(Br)ccc2Cl)nn1C	-7%	10%	?	6%	-1%	-4.7%	-26%	1%
COc1ccc2c(CC(=O)Nc3ccccc3N3CCOCC3)coc2c1	.	-1%	-1%	-25%	-5%	.	?	-12%[46.1 µM]
O=C(Cn1c(C(=O)N2CCc3ccccc3C2)cc2sccc21)c1ccccc1	25µM*	4%	-1%	-26%	?	-7.4%	-3%	-19%
COc1ccc(N2CCN(C(=O)CCc3c(C)nc4c(-c5ccccc5)c(C)nn4c3C)CC2)cc1	?	.	.	23%[46.1 µM]	.	-0.5%	?	?
COc1ccc(NC(=O)c2cnn(-c3ccccc3)c2C)c(OC)c1	.	?	-8%	0%[46.1 µM]	-36%	.	0%	?
Cc1cc(C)cc(N=Cc2ccc([N+](=O)[O-])s2)c1	-17%	40µM*	-78%	?	-63%	-6.2%	0%	?
CC(C)CC(=O)Nc1nnc(SCC(=O)Nc2ccc3c(c2)OCO3)s1	-13%	8%	0%	-1%	8%	0.4%	2%	11%
N#CC1=C(N)Oc2c(oc(CO)cc2=O)C1c1ccsc1 (stereo not given)	1%	6%	0%	-8%	-2%	-1.8%	-24%	?
COc1ccc(C(=O)O)cc1S(=O)(=O)Nc1ccccc1-c1ccccc1	.	-3%	1%	-2%[46.1 µM]	8%	.	7%	-5%[46.1 µM]
O=C1c2cccnc2C(Nc2ccc(S(=O)(=O)N3CCCCCC3)cc2)N1Cc1ccccc1 (stereo not given)	16%	-7%	-4%	6%	-48%	-17%	12%	-13%
CC1(C)CC(NC(=O)C(C)(C)Oc2ccc(Cl)cc2)CC(C)(C)N1	.	4%	-1%	-3%	0%	.	-6%	-22%[46.1 µM]
CCN1CCN(C(=O)Cn2ncc3c2-c2ccccc2OC3)CC1	-4%	13%	-2%	.	3%	1.8%	-10%	.
O=C(O)Cc1ccc(NC(=O)COc2ccc3ccccc3c2)cc1	.	1%	-5%	17%	18%	.	-14%	17%
CCN1C(=O)C(=O)N(Cc2ccc(OC)c(F)c2)C1=O	.	-2%	-5%	-11%[46.1 µM]	-3%	.	37%[activator]	0%[46.1 µM]
Cc1cc(C(C)(C)C)oc1C(=O)NCCCNC(=O)c1oc(C(C)(C)C)cc1C	?	-8%	32%	-10%	10%	-15%	-28%	22%
Cc1cc(C)n2nc(SCC(=O)N(CCC#N)c3ccccc3F)nc2n1	.	-14%	-5%	-6%	.	.	-4%	?
COc1c(F)c(F)c(C(=O)Nc2ccc(N3CCN(C(C)=O)CC3)c(Cl)c2)c(F)c1F	2%	21%	2%	-17%	-11%	-4.5%	?	?
Cc1csc(Nc2cccc3ccccc23)n1	.	-4%	-7%	4%	.	.	22%	?
O=C1C2C(c3ccccc3)C=CC(c3ccccc3)C2C(=O)N1CCCO (stereo not given)	?	-27%	-5%	1%	-12%	-3.2%	32µM*	1%
C=C(C)c1cccc(C(C)(C)NC(=O)N2CCN(c3ncccn3)CC2)c1	.	11%	.	3%	-10%	.	-10%	0%&0%
Cn1c(=O)c(=O)n(C)c2cc(S(=O)(=O)N3CCCC3C(=O)NCc3ccco3)ccc21 (stereo not given)	.	14%	-2%	.	-4%	.	-12%	.
O=C(COC(=O)c1ccc(S(=O)(=O)N2CCCCC2)cc1)NCc1ccco1	.	10%	0%	.	.	.	-7%	11%[46.1 µM]
CN(C)CCC(=O)c1ccc(Cl)cc1	-29%	?	1%	-9%	-91%	-21%	0%	-8%

Screening data: PubChem BioAssay, National Center for Advancing Translational Sciences (NCATS)
